Source: PubChem BioAssay (National Center for Advancing Translational Sciences (NCATS))
TRPML1 blocker: inhibitors of human TRPML1 channel; Q9GZU1; TRPML1-inducible cells, Ca2+ dye fluorescence, FDSS; stronger effect = lower value; inhibition of EC80 agonist-evoked calcium signal; activity change, negative = inhibition, % (no concentration beside the values); actives 0.02% (n = 390,000); in the data active means activity change below about -50%; inconclusive means about -30% to -50%; inactive means above about -30%;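 also: stimulus is agonist 54-4 at its EC80 concentration; % is scaled to controls: 0 for no effect and ±100 for the full control effect; compound concentration not given in the record; the text of the record puts the active cut at -80%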
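Calcium fluorescence in TRPML1-DL cells induced overnight with Tet: a 110 s read after compound pin addition, then a 110 s antagonist read after challenge with 54-4 at 4 uM final (EC80).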
TRPV1 potentiator: human TRPV1 potentiation | Q8NER1 | TRPV1-expressing cells, Fluo-8 calcium influx, capsaicin EC20 potentiation; host cell line not named in the record; control for the full effect not named in the record | potentiation, % at 8.33 µM | actives 0.02% (n = 320,000); active means potentiation above 80%; inconclusive means 30% to 80%; inactive means below 30%; also: 0% is about no effect
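TRPV1-expressing cells were cultured overnight at 35.5C and loaded with Fluo-8 calcium dye for 40 to 90 min at room temperature. After a 10 s baseline, compound was added and calcium influx was read kinetically for 3 min (ex 480/em 520 nm).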
Six1-Eya2 blk: inhibitors of human Six1/Eya2 interaction; AlphaScreen GST-Six1/His-Eya2 binding, biochemical; stronger effect = lower value; control for the full effect not named in the record; AID 651725; actives 0.56% (n = 360,000); activity change, % (concentration not given with the values); Q15475+O00167; in the data active = activity change below about -65%; inconclusive = about -30% to -65%; inactive = above about -30%; also: % is scaled to controls: 0 for no effect and ±100 for the full control effect
Target sequence (O00167 whole entry, looked up): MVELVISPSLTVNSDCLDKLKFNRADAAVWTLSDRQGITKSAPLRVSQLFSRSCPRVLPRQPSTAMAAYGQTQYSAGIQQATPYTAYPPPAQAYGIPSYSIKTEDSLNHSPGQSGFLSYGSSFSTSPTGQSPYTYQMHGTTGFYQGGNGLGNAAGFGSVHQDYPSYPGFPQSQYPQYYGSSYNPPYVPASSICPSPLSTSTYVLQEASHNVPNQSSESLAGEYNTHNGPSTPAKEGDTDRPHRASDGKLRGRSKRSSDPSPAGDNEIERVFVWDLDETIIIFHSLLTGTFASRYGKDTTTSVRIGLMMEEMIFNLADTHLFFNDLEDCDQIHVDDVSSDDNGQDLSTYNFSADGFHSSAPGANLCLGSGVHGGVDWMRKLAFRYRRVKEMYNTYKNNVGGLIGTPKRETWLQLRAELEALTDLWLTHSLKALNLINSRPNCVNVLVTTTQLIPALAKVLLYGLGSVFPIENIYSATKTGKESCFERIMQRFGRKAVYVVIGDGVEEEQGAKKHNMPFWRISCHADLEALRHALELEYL
Target sequence (Q15475 whole entry, looked up): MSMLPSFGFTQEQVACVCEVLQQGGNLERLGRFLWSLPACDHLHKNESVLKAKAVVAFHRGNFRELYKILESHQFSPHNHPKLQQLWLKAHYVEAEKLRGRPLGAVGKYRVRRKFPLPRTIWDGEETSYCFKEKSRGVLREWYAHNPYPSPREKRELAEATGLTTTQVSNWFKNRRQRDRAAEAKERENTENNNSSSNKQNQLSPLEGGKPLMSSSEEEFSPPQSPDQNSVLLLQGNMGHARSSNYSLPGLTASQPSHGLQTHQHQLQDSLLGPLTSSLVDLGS
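AlphaScreen with GST-Six1 and His-Eya2 (5X mix: 250 nM and 500 nM), glutathione donor and nickel acceptor beads; buffer 50 mM Tris pH 8.0, 300 mM NaCl, 1 mM TCEP; 1 h at 37 C in the dark.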
TRPML1 ag: activates the human TRPML1 channel; activation, % (no concentration beside the values); AID 624414; TRPML1-expressing cells, Ca2+ dye fluorescence, FDSS; host cell line not named in the record; reference of the full effect not given here; actives 0.12% (n = 410,000); in the data active = activation above about 50%; inconclusive = about 30% to 50%; inactive = below about 30%; also: 0% is about no effect; the text of the record puts the active cut at 80%
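Tet-induced TRPML1-DL cells, 1,500 per well, cultured overnight, were loaded with a no-wash Ca2+ dye for 45–90 min. Calcium fluorescence was recorded on the FDSS for 110 s after compound addition, before the EC80 agonist (4 uM 54-4) was added.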
D2 PAM: human D2 receptor positive allosteric modulation; P14416; DiscoveRx D2 beta-arrestin cells, luminescence, 90 min; 100% = 57 uM dopamine signal; potentiation, % (no concentration beside the values); actives 0.23% (n = 360,000); AID 624464; active = potentiation of 50% or more; inconclusive = 30% to 50%; inactive = 30% or less;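 also: compound concentration not given in the record; tested on top of an EC20 dose of dopamine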
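PathHunter D2 cells, attached overnight at 37 deg C, received compound in DMSO plus dopamine at EC20 (50 nM final) for 90 min at 37 deg C. Beta-arrestin recruitment was read as luminescence after 1 h with detection reagent at ambient temperature.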
CtBP-E1A blk: CtBP/E1A binding inhibition | AlphaScreen GST-E1A/His-CtBP binding, 1536-well; stronger effect = lower value; control for the full effect not named in the record | actives 0.49% (n = 340,000) | AID 651724 | activity change, % (test concentration not listed); in the data active means activity change below about -65%; inconclusive means about -30% to -65%; inactive means above about -30%; also: % is scaled to controls: 0 for no effect and ±100 for the full control effect; compound concentration not given in the record
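Steps: dispense buffer (Tris pH 8.0, NaCl 300 mM, TCEP 1 mM, BSA, Tween 20); add 5X protein mix (GST-E1A, His-CtBP, 125 nM each); pin 23 nL compound; 2 h at 37 °C, dark; add 5X beads (50 ug/mL); 1 h; read.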
* marks the source's active call; other numbers are inactive results; ? = inconclusive; . = no result given; & = joins results of further samples.

nr	Compound	TRPML1 blocker	TRPV1 potentiator	Six1-Eya2 blk
1	COc1ccc(Cc2nnc(SCC(=O)c3ccccc3)o2)cc1	11	-11	2
2	CCOC(=O)c1c(NC(=O)CSc2nnnn2-c2ccc(OC)cc2)sc(C)c1C	25	3	-1
3	CCCCCOc1ccc(CSc2n[nH]c(C)n2)cc1	0	13	6
4	c1ccc2c(c1)[nH]c1c3ccccc3sc21	9	7	-5
5	Cc1oc(-c2ccccc2F)nc1CS(=O)(=O)CC(=O)NCCN1CCCC1	-12	-15	-5
6	CC1=C(C(=O)Nc2ccccc2)C(c2ccncc2)C(C#N)=C(SCC(=O)Nc2ccccc2)N1 (stereo not given)	2	0	-7
7	CCCCC1CCC(C(=O)Nc2ccccc2)CC1 (stereo not given)	-4	-10	6
8	COc1ccc(CC(=O)Nc2cccc(-c3ccc4nnc(C)n4n3)c2)cc1	-1	-16	-14
9	COc1cccc(CN(C)C(=O)COc2ccc(C(=O)c3ccc(Cl)cc3)cc2)c1OC	14	3	-1
10	CCN(CC)CC(=O)NCC1(c2ccccc2)CCCC1	10	-1	18
11	O=C(O)C1CC(c2ccccc2F)=NO1 (stereo not given)	-9	3	-3
12	CC(C)c1ccc(N(C(=O)c2csnn2)C(C(=O)NC2CCCC2)c2cccnc2)cc1 (stereo not given)	-1	2	3
13	COc1cc(NC(=O)CCCC(=O)OCC(F)(F)C(F)F)nc(OC)n1	-10	.	2
14	COc1cccc(OC)c1C(=O)NC(=O)Oc1c(F)cccc1F	55	12	5
15	O=C(NC1CCN(C(=O)Nc2ccc(F)cc2)CC1)c1cccc(F)c1	5	-1	5

nr	TRPML1 ag	D2 PAM	CtBP-E1A blk
1	1.1	-3	2
2	0.0	-8	8
3	1.6	-3	16
4	0.5	-6	.
5	-0.4	-10	-1
6	0.2	4	-7
7	0.5	0	2
8	-0.2	-1	-1
9	-0.1	-7	-23
10	0.6	-4	5
11	0.2	2	4
12	1.2	-1	1
13	0.7	10	7
14	-0.4	-1	6
15	0.9	-5	1

A second format for some results above:
| # | compound | TRPML1 blocker | TRPV1 potentiator | Six1-Eya2 blk | TRPML1 ag | D2 PAM | CtBP-E1A blk |
| --- | --- | --- | --- | --- | --- | --- | --- |
| 3 | CCCCCOc1ccc(CSc2n[nH]c(C)n2)cc1 | 0 | 13 | 6 | 1.6 | -3 | 16 |
| 4 | c1ccc2c(c1)[nH]c1c3ccccc3sc21 | 9 | 7 | -5 | 0.5 | -6 | . |

(list continues)
nr	Compound	TRPML1 blocker	TRPV1 potentiator	Six1-Eya2 blk
16	CCN(CC)C(=S)SCC(=O)Nc1cccc(C(F)(F)F)c1	-5	.	7
17	O=C(O)c1ccccc1-c1ccccc1C(=O)NCc1cccnc1	-11	-5	4
18	COc1ccccc1COc1cccn2c(N(C)C(=O)CCC3CCCC3)c(C)nc12	.	.	-3
19	CC(C)(C)c1cc(C(=O)N/N=C/c2cc3c(cc2Br)OCO3)n[nH]1	17	-15	3
20	COc1ccc(S(=O)(=O)N2CCCCCC2)cc1NC(=O)Cc1cc(OC)c(OC)c(OC)c1	6	11	-1
21	O=C(CNC(=O)c1ccc(Br)o1)NCc1ccc(F)cc1	-5	4	-1
22	CC1(CCc2ccccc2)NC(=O)N(Cc2cc([N+](=O)[O-])cc3c2OCOC3)C1=O (stereo not given)	2	9	-9
23	COC(=O)C1CCN(C(=O)COC(=O)c2ccc(N3CCCC3=O)cc2)CC1	5	.	5
24	O=C(NCC1CCCO1)c1cccs1 (stereo not given)	10	26	-2
25	CC(C)CN(C(=O)CN1CCCCCC1)c1c(N)n(CC(C)C)c(=O)[nH]c1=O	6	-6	-1
26	C=CCN1N=C(c2ccc(Cl)s2)CSC1=O	5	-12	12
27	Cc1cc(C)n(CC(=O)N/N=C/c2ccc([N+](=O)[O-])s2)n1	-13	-35	-16
28	O=C1OC(N2C(=O)CC[C@H]2C(=O)Nc2ccc(F)c(F)c2)c2ccccc21 (stereo not given in full)	.	-3	4
29	Cc1cc(=O)oc2c3c(cc(OCC(=O)NCC(=O)O)c12)OC(C)(C)CC3	-6	?	?
30	CN(Cc1ccccc1Cl)C(=O)C1CC(=O)N(c2ccc3c(c2)OCCO3)C1 (stereo not given)	34	-13	0

nr	TRPML1 ag	D2 PAM	CtBP-E1A blk
16	2.3	-12	8
17	0.9	0	22
18	-0.9	2	-3
19	0.0	-45	3
20	0.7	1	-22
21	1.3	-22	2
22	-0.2	-6	-7
23	0.2	5	.
24	1.8	-6	2
25	-1.1	-1	4
26	2.9	-10	9
27	-0.5	16	-12
28	.	-13	5
29	-0.7	-3	.
30	-0.3	-5	-16

More entries follow.
nr	Compound	TRPML1 blocker	TRPV1 potentiator	Six1-Eya2 blk
31	CN(CCC#N)c1ccc(C=C(C#N)c2cccc(C(F)(F)F)c2)cc1	.	.	-7
32	C[C@@H](NC(=O)[C@@H]1Cc2ccccc2CN1)C(=O)NC1CCCCC1	5	10	4
33	O=C(CCc1ccc(S(=O)(=O)N2CCOCC2)cc1)N/N=C/c1ccc(O)c(O)c1O	-7	-1	-68*
34	CCOC(=O)C(Cc1c[nH]c2cc([N+](=O)[O-])ccc12)(NC(C)=O)C(=O)OCC	2	.	-2
35	CCCNc1nc(N2CCOCC2)nc(N2CCOCC2)n1	-1	-7	0
36	Cc1c(C(=O)N2CCCCC2)c(S(=O)(=O)N2CCN(c3ccc(Cl)cc3)CC2)c(C)n1C	11	-2	-7
37	CCOCCCNC(=O)CSc1nnc(-c2ccc(S(=O)(=O)N3CCCC3)cc2)n1C	-26	17	6
38	O=C(CSCc1ccco1)c1cccs1	-18	?	-3
39	Cc1ccsc1-c1n[nH]c(=S)n1CC(C)C	-17	-1	9
40	O=c1[nH]c2ccc(S(=O)(=O)N3CCN(C4CCCCC4)CC3)cc2[nH]c1=O	5	-5	-1
41	CCCCn1nnnc1NCc1cc(Cl)c(OC)c(OC)c1	-12	-1	4
42	CCCCc1ccc(NC(=S)N2CCN(C(=O)OCC)CC2)cc1	24	9	-4
43	CC1CCCN(c2ccc(C(=O)NCCc3ccccc3)cn2)C1 (stereo not given)	0	-8	3
44	COc1cccc2[nH]c3c(N4CCCC(C)C4)ncnc3c12 (stereo not given)	4	15	-9
45	Cc1ccc(C(=O)NCC(=O)NCCSc2ccc(Br)cc2)cc1	0	-2	1

nr	TRPML1 ag	D2 PAM	CtBP-E1A blk
31	6.4	-1	?
32	-0.6	-11	7
33	1.9	82*	-73*
34	-0.3	-3	6
35	0.3	-1	4
36	0.2	-8	-8
37	-0.9	-7	2
38	-1.6	-8	-4
39	-0.7	-13	5
40	0.4	-9	-7
41	-0.8	0	.
42	2.3	3	-6
43	0.9	-7	7
44	-0.5	-34	-4
45	1.2	-33	-24

Additional records follow:
nr	Compound	TRPML1 blocker	TRPV1 potentiator	Six1-Eya2 blk
46	Cc1ccc(C(C)(O)CS(=O)(=O)Cc2ccccc2)cc1 (stereo not given)	-12	-9	2
47	CC(=O)c1cccc(N2C(=O)C3C(C(=O)Nc4cc(C)on4)C4(C)C=CC3(O4)C2C(=O)NC(C)(C)C)c1 (stereo not given)	18	8	2
48	Cc1ccc2[nH]c(=O)c(CN(CCCO)S(=O)(=O)c3cccc4nsnc34)cc2c1	7	17	0
49	Cc1ccc(NC(=O)CSc2nc(=O)cc(N)n2CCc2ccccc2)cc1	3&-25	14	-5
50	CCOC(=O)CC(=O)CSc1[nH]c(=O)cc(C)c1C#N	0	13	-14
51	COc1ccc(S(=O)(=O)N2CCN(C(=O)c3ccc4ccccc4n3)CC2)cc1	-9	4	1
52	Cc1ccc(OCC(=O)OCc2nc3scc(-c4ccccc4)c3c(=O)[nH]2)cc1C	10	17	-4
53	CCOC(=O)c1ccccc1NC(=O)c1ccccc1SC	13	-8	13
54	CCc1ccccc1NC(=O)C(C#N)Cc1cccnc1 (stereo not given)	5	28	2
55	COc1ccc(N2CC(C(=O)N[C@@H](C)C(=O)NC3CCCCC3)CC2=O)cc1 (stereo not given in full)	-1	2	0
56	CC(C)(C)CN1C(N)=NC[C@@H]1Cc1ccccc1	-9	.	4
57	CCOC(=O)c1cnc2nc[nH]n2c1=O	-8	19	1
58	O=C(CSc1nnnn1-c1ccccc1)NCc1cccs1	-6	4	-1
59	CCOc1ccc(N(C(=O)c2cnsn2)C(C(=O)NC2CCCCC2)c2ccncc2)cc1 (stereo not given)	4	3	5
60	O=C(O)c1ccc(Cl)c(S(=O)(=O)NC(Cc2c[nH]c3ccccc23)C(=O)O)c1 (stereo not given)	-7	-25	1
61	Cc1nn(-c2nc(-c3ccco3)cc(C(F)(F)F)n2)c(C)c1Cl	-8	0	6
62	C=CCN(c1ccc(C(=O)Nc2cccc([N+](=O)[O-])c2)cc1)S(C)(=O)=O	25	-6	-1

nr	TRPML1 ag	D2 PAM	CtBP-E1A blk
46	-0.3	2	7
47	-0.6	4	4
48	0.2	9	-3
49	-0.1&0.4	-9	.
50	-0.7	28	-18
51	1.5	4	4
52	1.1	-18	5
53	3.5	-11	8
54	-0.6	-7	1
55	-0.4	-1	-2
56	-0.5	-6	16
57	-0.4	4	1
58	5.0	-2	-7
59	-0.1	-5	-5
60	1.1	-4	.
61	-0.6	1	0
62	-0.2	-17	.

From entry 61 up to 62, as listed above:
nr	Compound	TRPML1 blocker	TRPV1 potentiator	Six1-Eya2 blk
61	Cc1nn(-c2nc(-c3ccco3)cc(C(F)(F)F)n2)c(C)c1Cl	-8	0	6
62	C=CCN(c1ccc(C(=O)Nc2cccc([N+](=O)[O-])c2)cc1)S(C)(=O)=O	25	-6	-1

nr	TRPML1 ag	D2 PAM	CtBP-E1A blk
61	-0.6	1	0
62	-0.2	-17	.
